# Source: PubChem BioAssay
# BmaI1 = BmaI1 acyl-homoserine lactone synthase inhibition – biochemical, fluorescence intensity, with counterscreen (AID 720554). 0.4% of 12,000 active. inhibition, %. BmaI1 enzyme assay, fluorescence intensity; stronger effect = higher value; test concentration not given here; a few actives read low; strong numbers were not always called active;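 active means both replicates within 2 robust z-scores of the inhibited control and a quiet counterscreen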;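 further: 0% = uninhibited enzyme and 100% = inhibited control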
# BmaI1 counterscreen = further read-out of BmaI1, marked with its call; inhibition, %; measured here: counterscreen; design of the counterscreen not given here;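 first of two replicates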
# * marks the source's active call; other numbers are inactive results.
SMILES,BmaI1,BmaI1 counterscreen
CC(=O)Nc1ccc(SCC(=O)N2CC(C)CC(C)C2)cc1 (configuration not stated),19.0,8.0
CCS(=O)(=O)N1Cc2ccccc2CC1C(=O)N1CCN(c2ccccc2)CC1 (configuration not stated),13.0,12.0
O=C(CN(CC(=O)NC1CC1)Cc1ccc(Cl)cc1)NC1CC1,15.0,8.5
CC(C)Cn1c(SCC(=O)N2CCCC2=O)nc2cc(Cl)ccc2c1=O,19.0,6.0
CCOc1ccc(-n2c(N)c3c(N)nc(N4CCOCC4)c(C#N)c3c(C#N)c2=S)cc1,4.5,-2.0
CS(=O)(=O)c1ccc(Cl)c(NC(=O)C2CCCC2)c1,10.0,13.0
Cc1ccc2c(c1)CCCN2CC(=O)NCC(F)(F)F,53.5,-22.5
CC(=CCC1=C(C)C(=O)c2ccccc2C1=O)CCCC(C)CCCC(C)CCCC(C)C (configuration not stated),28.0,24.0
CC(=O)N1Cc2ccccc2CC1C(=O)Nc1ccc(S(=O)(=O)N(C)C)cc1 (configuration not stated),14.0,-3.5
N#CCOC(=O)c1nc(-c2ccccc2)n(-c2ccccc2)n1,16.0,6.5
CC(=O)Nc1ccc(S(=O)(=O)N2CCCCC2C(=O)O)cc1 (configuration not stated),1.0,-16.0
O=C(O)c1csc(-c2ccccc2)n1,12.5,10.0
CCCCN1C(=O)c2ccc(C(=O)Nc3ccc(S(=O)(=O)N(C)C)cc3)cc2C1=O,6.0,0.0
O=C(CNc1ncnc2ccccc12)OCCOc1ccccc1,7.0,-1.0
CC1CN(C(=O)c2cc3c(s2)CCCC3)CC(C)O1 (configuration not stated),-7.5,-13.0
O=C(OC1CCOC1=O)C1CCN(S(=O)(=O)c2ccccc2)CC1 (configuration not stated),0.5,7.0
O=C(NCC(c1cccs1)N1CCOCC1)Nc1ccccc1Cl (configuration not stated),6.5,6.5
O=C(C1=COCCO1)N1CCN(C(c2ccccc2)c2ccccc2)CC1,-7.5,6.5
CCc1nnc(NC(=O)[C@@H]2CCCN2C(=O)c2cccs2)s1,15.0,11.5
COc1ccc(Cl)cc1C(=O)NCCc1ccc(S(=O)(=O)NC(=O)NC2CCCCC2)cc1,15.0,18.0
CCNC(=O)CNCc1c(C)nn(CC(C)C)c1Cl,-11.5,-6.5
CCN(C(=O)CSC1=N/C(=C\c2ccco2)C(=O)N1c1ccc(OC(F)F)cc1)C1CCS(=O)(=O)C1 (configuration not stated),19.0,4.0
CCOC(=O)c1sc(N)c(C#N)c1COC(=O)c1cccc(OCc2c(C)noc2C)c1,12.5,5.0
CC(NC1CC1)C(=O)N1CCN(C(=O)c2ccco2)CC1 (configuration not stated),17.5,1.0
O=C(CNc1cccc(C(F)(F)F)c1)N/N=C1\CC2CC=CC12 (configuration not stated),5.5,32.5

# (further entries)
SMILES,BmaI1,BmaI1 counterscreen
COC(=O)c1ccc(OCC(=O)c2cc(C)n(-c3cc(C)on3)c2C)cc1,23.0,16.5
Cc1ccc(NC(=O)C2CCN(S(=O)(=O)c3cccs3)CC2)cc1C,6.5,3.0
CCn1c(=O)c(C(=O)CNc2ccc(S(C)(=O)=O)cc2)c(N)n(Cc2ccccc2)c1=O,-7.5,-4.5
O=C(O)C1Cc2ccccc2CN1S(=O)(=O)c1ccccc1 (configuration not stated),12.5,15.0
O=C(CN1CCN(S(=O)(=O)c2ccc(Cl)cc2)CC1)N(C1CCCCC1)C1CCS(=O)(=O)C1 (configuration not stated),7.0,9.5
CN(C)C(CNC(=O)c1n[nH]c(=O)c2ccccc12)c1ccccc1 (configuration not stated),14.5,14.0
Cc1ccnc2nc(C(=O)NC3CCCc4ccccc43)nn12 (configuration not stated),-1.0,3.5
Cc1cc2oc(=O)cc(Cn3ccsc3=N)c2cc1C(C)C,11.0,3.0
Cc1ccc(C(=O)C(C)Sc2nnc3ccccn23)cc1 (configuration not stated),2.5,-0.5
COc1cccc(NC(=S)N/N=C/c2ccc(O)cc2)c1,47.0,34.5
COc1ccc(CC(=O)OCc2nc3ccc(Cl)cc3n2CCO)cc1OC,30.5,5.0
CNC(=O)c1cccc(N)c1,-3.0,-7.5
COc1ccccc1N1C(=O)CSC1=NC(=O)c1ccccc1,31.5,16.5
CC(=O)Nc1ccc(C2=NNC(=NC(C)C)SC2)cc1,77.0,4.0
COC(=O)c1ccc(COC(=O)Cc2coc3cc4c(cc23)CCC4)o1,16.5,2.5
CN(Cc1ccccc1)C(=O)Cn1cc(Br)ccc1=O,-1.5,1.5
Cc1cc(C2=Nn3cc(-c4ccccc4)nc3SC2)c(C)n1CC1CCCO1 (configuration not stated),15.0,7.0
Cc1noc(C)c1COC(=O)c1cc2c3ccccc3n(C)c2s1,21.0,14.0
Cc1ccccc1Nc1nc(N)nc(CSc2nc3scc(-c4cccs4)c3c(=O)[nH]2)n1,30.0,23.5
O=C(O)COc1cc(O)c2c(=O)c(-c3ccc4c(c3)OCCO4)coc2c1,3.0,-6.5
Cc1ccc(C2=CSC3=C(C(=O)c4ccc(S(=O)(=O)N(C)C)cc4)CCN23)cc1,14.0,-2.0
Cc1ccccc1OCCN1C(=O)NC(CC(C)C)C1=O (configuration not stated),8.5,5.0
O=C(OCN1C(=O)c2ccccc2C1=O)c1ccc2c(c1)C(=O)N(Cc1ccco1)C2=O,3.0,-1.5
CCN(C(C)=O)c1nc(CSc2nnc(C3CCCCC3)n2N)cs1,17.0,-0.5
O=C(O)c1cc2c(nc3ccccn32)s1,7.5,5.0

# (more compounds)
SMILES,BmaI1,BmaI1 counterscreen
COc1cccc(NC(=O)Cn2sc3ccccc3c2=O)c1,76.0,13.0
N#Cc1ccc(COC(=O)C2CN(Cc3ccc(C#N)cc3)CCS2)cc1 (configuration not stated),14.0,10.0
Cc1ccc(C(=O)OCC(=O)N2CCC(c3ccccc3)=N2)cc1,17.5,9.5
O=C(COC(=O)C12CCC(=O)N1c1ccccc1S2)N1CCC(c2ccccc2)=N1 (configuration not stated),18.5,12.5
CCCn1nnnc1Cn1cnc2scc(-c3ccc(C)s3)c2c1=O,15.5,2.0
CC(C)CNC(=O)Cn1c(=O)cnc2ccccc21,16.0,11.0
CNC(=O)NC(=O)C(Sc1nnnn1-c1cc(C)ccc1C)c1ccccc1 (configuration not stated),2.0,3.5
NS(=O)(=O)c1cc(C2(O)NC(=O)c3ccccc32)ccc1Cl (configuration not stated),4.0,15.0
Cc1noc(N)c1C(=O)OCc1ccc(C#N)cc1,15.5,10.0
CCOC(=O)c1cc(C)n(CC(=O)OCc2ccc(C#N)cc2)c1C,30.0,10.0
c1csc(-c2nnc(CON=C3c4ccccc4-c4ccccc43)o2)c1,17.5,6.5
O=C(OCC(=O)N1CCCC1)c1ccc2c(c1)OCO2,9.0,-1.0
COc1ccc(Cl)cc1-c1nc(SCC(=O)NC2CCS(=O)(=O)C2)n[nH]1 (configuration not stated),15.5,16.0
CC(=O)N/N=C(\Cc1nc2ccccc2[nH]1)c1ccccc1,20.5,8.5
N#Cc1ccc(/C=C2/N=C(SCC(=O)N3CCCC3)N(C3CCCCCC3)C2=O)cc1,3.0,-5.5
COc1ccc(Cn2c(O)c(/C=N/Nc3nc(C)cc(C)n3)c3ccccc3c2=O)cc1,73.0,33.0
Nn1cnnc1SC(CNS(=O)(=O)c1ccc(Cl)cc1)c1ccccc1 (configuration not stated),13.5,8.0
CCCn1c(N)c(C(=O)CN2CCc3ccccc3C2)c(=O)[nH]c1=O,9.0,0.0
CC1(C)CC(NC(=S)Nc2ccc(S(=O)(=O)N3CCOCC3)cc2)CC(C)(C)N1,0.0,4.5
CN1CCc2nc(NC3=NCCCCC3)sc2C1,5.5,4.0
CC1CCC(N(C)c2nc(C(F)(F)F)nc3ccccc23)CC1 (configuration not stated),19.0,5.0
O=C1CN(Cc2cc(=O)oc3cc4c(cc23)CCC4)CCN1,6.0,6.0
CC1(C)Cc2c(sc(N3CCCC3=O)c2C#N)C(C)(C)N1,3.5,0.0
COc1cc(/C=C/C(=O)C(C#N)c2nc3ccccc3n2C)cc(OC)c1OC (configuration not stated),4.5,1.5
CC(C)NC(=O)CN,6.5,4.5

# (cont.)
SMILES,BmaI1,BmaI1 counterscreen
O=C1Nc2ccc(Cl)cc2C(c2ccccc2Cl)=NC1O (configuration not stated),3.0,10.5
N#C/C(=C\c1ccc(-c2ccc(SC(F)F)cc2)o1)C(=O)Nc1nc2ccccc2s1,3.0,1.5
CC(C#N)Sc1nnc(-c2cccs2)n1CC1CCCO1 (configuration not stated),12.0,4.0
CCn1cc(C(=O)N=c2sc3ccccc3n2C)c(=O)c2ccc(C)nc21,26.5,12.0
Cc1ccccc1NC(=O)CSC1=Nc2ccccc2C2CC=NN12 (configuration not stated),10.5,1.5
Cc1cccc(N=C(N2CCOCC2)P(=O)(N2CCOCC2)N2CCOCC2)c1,14.0,8.5
Cc1ccc(C(=O)Nc2cccc(/C=N/N3CCOCC3)c2)cc1,8.5,-5.5
Cc1ccn2c(NS(=O)(=O)c3ccc4c(c3)OCCO4)c(-c3cccs3)nc2c1,87.5,40.0
CSC1=NSC2=NS(=O)(=O)CCN12,14.5,5.5
CCc1ccc(CN(C)CC(=O)N(C)c2c(N)n(Cc3ccccc3)c(=O)[nH]c2=O)cc1,5.0,4.0
CCOC(=O)/C(=C\c1cccc2ccccc12)C1=Nn2c(C)nnc2SC1,2.0,8.5
CCCCNc1ccccc1C(=O)OCc1nc2ccccc2c(=O)n1CC#N,-3.5,-11.0
Cc1noc(C)c1COC(=O)/C(C#N)=C/c1cc(C)n(-c2ccc(Cl)c(C(F)(F)F)c2)c1C,12.0,8.0
CC(C)CCN(C(=O)Cn1c(=O)oc2ccccc21)c1c(N)n(Cc2ccccc2)c(=O)[nH]c1=O,1.5,2.5
N=Nc1c(O)n(Cc2ccccc2)c2ccccc12,-2.0,-10.5
O=C(CNC(=O)C1CCCCC1)OCc1cc(=O)n2c(n1)sc1ccccc12,11.5,-2.0
CN(C(=O)COc1ccc(-c2nnco2)cc1)C1CCCc2ccccc21 (configuration not stated),19.0,11.5
COC(=O)c1ccc(CSc2nnc(-c3ccc(F)cc3)c3ccccc23)o1,32.0,2.0
C/C(=N\OC(=O)c1ccc(S(=O)(=O)N2CCCC(C)C2)cc1)c1ccc(C)o1 (configuration not stated),6.5,13.0
CCn1c(SCc2cc(=O)oc3cc(NC(C)=O)ccc23)nnc1-c1ccccc1,3.5,3.0
Cc1ccccc1C(=O)N/N=C/c1ccccc1,12.5,17.5
S=c1nc(-c2cccs2)[nH]c2ccccc12,54.0,44.0
CSCCC(C(=O)Nc1cccnc1)N1C(=O)c2ccccc2C1=O (configuration not stated),0.0,9.0
NS(=O)(=O)c1ccc(CCNC(=O)CN2CCCc3ccccc32)cc1,-9.0,17.0
CCOC(=O)C1CCN(C(=O)c2ccccc2NS(=O)(=O)c2cccs2)CC1,7.0,3.5

# (further entries)
SMILES,BmaI1,BmaI1 counterscreen
CC1CN(C(=O)c2ccc3ccccc3n2)CC(C)O1 (configuration not stated),-3.0,1.5
Cc1nc(N=Nc2c(O)[nH]c3ccccc23)c2c3c(sc2n1)CCCC3,15.5,10.5
O=C(C1CC1)N1N=CCC1(O)C(F)(F)F (configuration not stated),-19.0,-30.0
O=C(NC1CCS(=O)(=O)C1)c1cccc(C(F)(F)F)c1 (configuration not stated),6.0,5.0
CCOc1ncccc1C(=O)N(C)Cc1c(C)nn(-c2ccccc2)c1C,16.0,8.5
O=C(CCc1c[nH]c2ccccc12)Oc1ccc2c(c1)OCO2,19.0,21.0
Cc1ccc(-n2c(SCc3cc(C)on3)nc3sc(C)c(C)c3c2=O)c(C)c1,15.0,8.0
N#CCC(=O)Nc1ccc(C(=O)Nc2cccc(Cl)c2)cc1,4.5,10.0
CCOc1ccc(C(=O)OCC#N)cc1OCC,12.5,17.5
O=C(CN1CCN(S(=O)(=O)c2cccs2)CC1)Nc1ccc(S(=O)(=O)N2CCCC2)cc1,7.0,-2.5
CN(C(=O)COC(=O)c1ccccc1O)C1(C#N)CCCCC1,13.0,16.5
CN1/C(=C\C(=O)COC(=O)CCN2C(=O)C3CC=CCC3C2=O)C(C)(C)c2ccccc21 (configuration not stated),10.0,2.0
COc1ccccc1/C=C/C(=O)Nc1ccccc1C(=O)NCc1ccco1,12.0,8.5
Cc1ccc2c(COC(=O)c3ccc(-n4cnnn4)cc3)cc(=O)oc2c1,10.5,-6.5
COC(=O)c1cc(CSc2nc3ccccc3c(=O)n2C)oc1C,14.5,5.5
CCN(CC)/C(C)=N/C(=S)Nc1ccccc1,49.5,17.5
CN1/C(=C(\C#N)C(=O)CSc2nnc(-c3ccc(Cl)cc3)o2)Sc2ccccc21,22.5,3.5
CN(CC(=O)Nc1ccc(F)cc1)C(=O)Cn1nnc(-c2ccccc2)n1,14.0,9.5
NC(=S)c1ccc(O)cc1,39.5,26.0
CCOC(=O)C1CCN(Cn2c(=S)oc3ccc(S(=O)(=O)CC)cc32)CC1,5.0,-4.0
CC(C)(C)OC(=O)N1CCC[C@H]1C(=O)Nc1ccc(C#N)cc1,-5.0,4.5
COc1ccc(C(CNC(=S)NCc2ccco2)N2CCCCC2)cc1 (configuration not stated),-15.5,-6.0
COc1ccc(C(=O)O)cc1S(=O)(=O)N(C)CCc1ccccn1,-5.0,-8.0

# Not all compounds are listed; the hit share may differ from the screen's.
